# Bioassay records from PubChem BioAssay.
# Vaccinia inh: Vaccinia orthopox stage-specific inhibition; Vaccinia-infected cells, mCherry/Venus stage reporter fluorescence; hits give low values; some inactives read as strong as hits; activity change (mCherry), % (no concentration beside the values); 89,000 tested, 0.01% active; AID 1053133;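 active = mCherry past -33% and 40 or more points under the early reporter, replicates agreeing; inconclusive = past -33% without that gap or agreement; tested in A549 cells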;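 note: scaled between vehicle wells and reference inhibitor wells; 23 nL library stock went into each well; one replicate is shown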
# Vaccinia inh Venus: also measured in Vaccinia inh; calls as there; activity change (Venus), %; measured here: Venus reporter, other viral stage;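 negative = less Venus signal; first of two replicates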
# An asterisk follows results filed as active; ? = inconclusive; / = no result given. A portion of the library, so the mix of outcomes need not match the whole.
SMILES	Vaccinia inh	Vaccinia inh Venus
CNC(=O)C[C@H]1CC[C@@H]2[C@H](COC[C@H](O)CN2Cc2ccc(C(F)(F)F)cc2)O1	18.3	1.8
COc1ccc2c3c(n(C)c2c1)[C@@H](CO)N(C(=O)c1ccncc1)CC31CCN(C(C)=O)CC1	20.2	6.2
CC(C)NC(=O)N[C@H]1CC[C@@H](CC(=O)NC2Cc3ccccc3C2)O[C@@H]1CO	4.6	2.4
C[C@H]1CN([C@@H](C)CO)C(=O)Cc2cc(NC(=O)CCC(F)(F)F)ccc2O[C@H]1CN(C)Cc1ccc(Cl)c(Cl)c1	-24.9	-19.1
O=C(NCCN1CCOCC1)[C@@]1(CCS(=O)(=O)c2ccccc2)COC(c2ccc(OCCCO)cc2)=N1	14.2	-4.0
Cc1ccccc1CN(C)C[C@@H]1OCc2cnnn2CCCC(=O)N([C@H](C)CO)C[C@H]1C	9.7	8.0
Cc1ccc(S(=O)(=O)N(C)C[C@@H]2Oc3c(NS(=O)(=O)c4cccs4)cccc3C(=O)N([C@@H](C)CO)C[C@@H]2C)cc1	-16.4	-11.4
CCNC(=O)C[C@H]1CC[C@H](NC(=O)NC2CCCCC2)[C@@H](CO)O1	18.9	10.4
Cc1noc(C)c1NC(=O)Nc1ccc2c(c1)C(=O)N([C@H](C)CO)C[C@@H](C)[C@@H](CN(C)C(=O)Nc1ccc(C(F)(F)F)cc1)O2	13.5	13.1
C[C@@H]1CN([C@H](C)CO)C(=O)Cc2cc(NC(=O)Nc3ccc4c(c3)OCO4)ccc2O[C@H]1CN(C)C(=O)Nc1cccc2ccccc12	6.8	5.7
C[C@@H]1CN([C@@H](C)CO)C(=O)c2cc(NC(=O)Cc3ccccc3)ccc2O[C@@H](C)CCCCO[C@@H]1CN(C)Cc1ccccc1	-28.4	-14.6
O=C(Cc1ccccn1)N1CCCCN2[C@H](CO)[C@H](c3ccc(-c4ccccc4)cc3)[C@H]2C1	-12.4	-14.2
CC(C)CC#Cc1ccc([C@@H]2[C@H]3CN(C(=O)NC4CCCC4)CCCCN3[C@H]2CO)cc1	?	/
Cc1noc(C)c1NC(=O)Nc1ccc2c(c1)CC(=O)N([C@H](C)CO)C[C@@H](C)[C@@H](CN(C)Cc1ccc(-c3ccccc3)cc1)O2	-22.6	-16.4
C[C@@H]1CN([C@@H](C)CO)C(=O)c2ccccc2-c2ccccc2CO[C@@H]1CN(C)Cc1ccc2c(c1)OCO2	?	/
CN(C)C(=O)c1cccc(-c2ccc3c(c2)[C@@H]2[C@@H](CCN2C(=O)c2cccc(F)c2)[C@H](CO)N3C)c1	-24.0	-24.7
Cc1noc(C)c1NC(=O)Nc1cccc2c1O[C@H](CN(C)Cc1ccccc1)[C@@H](C)CN([C@H](C)CO)C2=O	3.6	10.6
O=C(C[C@@H]1C[C@@H]2c3cc(NS(=O)(=O)c4ccc(F)cc4)ccc3O[C@@H]2[C@H](CO)O1)NC1CCCCC1	0.5	4.1
CC(=O)N(C)C[C@H]1Oc2ncc(-c3cccc(C#N)c3)cc2C(=O)N([C@H](C)CO)C[C@H]1C	19.1	15.2
C[C@@H]1CN([C@H](C)CO)C(=O)c2cccc(NS(C)(=O)=O)c2O[C@@H]1CN(C)Cc1ccc(-c2ccccc2)cc1	12.2	5.6
C[C@H](CO)N1C[C@H](C)[C@H](CN(C)C(=O)NC2CCCC2)Oc2ncc(C3=CCCC3)cc2C1=O	9.1	10.3
C[C@@H]1CN([C@@H](C)CO)C(=O)c2cc(NC(=O)Nc3cccc4ccccc34)ccc2O[C@@H]1CN(C)Cc1ccc(Cl)c(Cl)c1	-12.2	-8.5
CN(C)CC(=O)N[C@H]1CC[C@@H](CCNS(=O)(=O)c2ccccc2)O[C@H]1CO	1.9	2.3
C[C@H](CO)N1C[C@H](C)[C@@H](CN(C)S(=O)(=O)c2ccccc2F)Oc2cc(C#Cc3cccc(F)c3)ccc2S1(=O)=O	-13.0	-7.3
CCCN1C[C@@H](C)[C@H](OC)CN(C)C(=O)c2cc(NC(=O)c3ccc(F)cc3)ccc2OC[C@@H]1C	-17.0	-4.6

# New compounds follow.
SMILES	Vaccinia inh	Vaccinia inh Venus
CCCN(C)C[C@H]1Oc2ncc(-c3ccccc3)cc2C(=O)N([C@H](C)CO)C[C@H]1C	-23.1	-14.3
C[C@@H]1CN([C@H](C)CO)C(=O)Cc2cc(NC(=O)CCN3CCOCC3)ccc2O[C@@H]1CN(C)C	-5.7	-7.0
Cc1ccc(S(=O)(=O)Nc2cccc3c2O[C@@H](CN(C)Cc2ccc(-c4ccccc4)cc2)[C@@H](C)CN([C@H](C)CO)C3=O)cc1	?	/
C[C@@H]1CN([C@@H](C)CO)C(=O)c2cc(-c3ccccc3)cnc2O[C@H]1CN(C)Cc1cccnc1	17.4	1.8
CC(C)c1cn([C@H]2C[C@@H]3O[C@H](CO)CC[C@@H]3O[C@@H]2CCc2ccc(C#CC3(O)CCCC3)cc2)nn1	-5.2	-11.6
C[C@@H]1CN([C@H](C)CO)C(=O)c2cccc(NS(=O)(=O)c3cccs3)c2O[C@@H]1CN(C)CC1CCCCC1	16.3	13.2
COCC(=O)Nc1ccc2c(c1)OC[C@@H](C)N(C(=O)c1ccccc1)C[C@H](C)[C@@H](OC)CN(C)C2=O	16.2	16.2
C[C@H]1CN([C@@H](C)CO)S(=O)(=O)c2ccc(C#Cc3ccc(F)cc3)cc2O[C@H]1CN(C)C(=O)NC1CCCCC1	?	/
CCCC#Cc1cnc2c(c1)C(=O)N([C@@H](C)CO)C[C@@H](C)[C@@H](CN(C)C(=O)C1CCC1)O2	-7.0	0.1
COc1ccc(NC(=O)N(C)C[C@@H]2OCCCC[C@H](C)Oc3ccc(NC(=O)Cc4ccccc4)cc3C(=O)N([C@H](C)CO)C[C@@H]2C)cc1	-11.0	-8.7
C[C@@H]1CCCCO[C@H](CN(C)C(=O)Nc2ccc(F)cc2)[C@H](C)CN([C@H](C)CO)C(=O)c2cc(NS(=O)(=O)c3cccs3)ccc2O1	?	/
C[C@H](CO)N1C[C@H](C)[C@@H](CN(C)CC2CC2)Oc2ccc(NS(=O)(=O)c3ccccc3)cc2C1=O	-2.0	-5.4
COc1cccc(NC(=O)C[C@@H]2CC[C@H]3[C@@H](COc4ccc(NC(C)=O)cc4C(=O)N3C)O2)c1	5.3	11.4
C[C@@H]1CN([C@@H](C)CO)S(=O)(=O)c2ccc(C#Cc3ccccc3)cc2O[C@@H]1CN(C)S(=O)(=O)c1ccccc1F	?	/
CNC[C@@H]1Oc2cc(C#Cc3cccc(OC)c3)ccc2S(=O)(=O)N([C@@H](C)CO)C[C@@H]1C	-33.0	-27.4
Cc1noc(C)c1NC(=O)N(C)C[C@H]1Oc2c(NC(=O)c3ccc(-c4nccs4)cc3)cccc2C(=O)N([C@H](C)CO)C[C@@H]1C	2.5	2.3
C[C@H](CO)N1C[C@H](C)[C@@H](CN(C)S(=O)(=O)c2ccccc2)Oc2ccc(NC(=O)NC3CCCCC3)cc2CC1=O	-0.5	1.8
Cn1cnc(S(=O)(=O)N2CC[C@H]3[C@H](CO)Nc4ccc(C#Cc5ccc(F)cc5)cc4[C@H]32)c1	?	/
Cc1noc(C)c1S(=O)(=O)N(C)C[C@@H]1Oc2ccc(NC(=O)NC(C)C)cc2CC(=O)N([C@H](C)CO)C[C@@H]1C	15.2	11.2
C[C@@H]1CN([C@@H](C)CO)C(=O)c2cccc(NC(=O)C3CCCCC3)c2O[C@H]1CN(C)S(=O)(=O)c1ccc(F)cc1	4.8	9.5
COc1cccc(CNC(=O)C[C@@H]2CC[C@H](NC(=O)C3CC3)[C@H](CO)O2)c1	-8.4	-7.8
O=C(C[C@@H]1CC[C@H]2[C@@H](COC[C@@H](O)CN2C(=O)c2cccnc2)O1)NC1Cc2ccccc2C1	-1.8	-2.8
C[C@H](CO)N1C[C@H](C)[C@H](CN(C)Cc2ccccc2)Oc2ccc(N(C)C)cc2C1=O	12.8	13.6
OC[C@@H]1[C@@H](c2ccccc2)C2(CN(Cc3nccs3)C2)N1Cc1ccccc1	-1.3	4.1
CNC[C@@H]1Oc2ccc(NC(=O)CCCN(C)C)cc2C(=O)N([C@H](C)CO)C[C@@H]1C	9.2	11.8

# Continuation.
SMILES	Vaccinia inh	Vaccinia inh Venus
COc1ccc(NC(=O)Nc2cccc3c2O[C@H](CN(C)Cc2ccc(-c4ccccc4)cc2)[C@@H](C)CN([C@H](C)CO)C3=O)cc1	10.3	12.6
C[C@@H]1CCCCO[C@@H](CN(C)S(=O)(=O)c2cn(C)cn2)[C@@H](C)CN([C@H](C)CO)C(=O)c2cc(NS(=O)(=O)c3ccc(F)cc3)ccc2O1	9.3	6.0
O=C(C[C@@H]1C=C[C@H](NC(=O)C2CCC2)[C@@H](CO)O1)NCc1ccncc1	13.1	11.5
CCS(=O)(=O)N1CCCCN2[C@H](CO)[C@H](c3ccc(C#CC(C)(C)O)cc3)[C@H]2C1	24.6	8.0
O=C(Nc1ccc(F)cc1)Nc1ccc2c(c1)[C@H]1C[C@@H](CC(=O)N3CCOCC3)O[C@H](CO)[C@H]1O2	3.4	3.5
C[C@H](CO)N1C[C@H](C)[C@@H](CN(C)Cc2ccc(C(F)(F)F)cc2)Oc2ccc(NC(=O)Nc3ccccc3)cc2CC1=O	-19.3	-16.1
C[C@@H]1CCCCO[C@@H](CN(C)C(=O)Cc2ccccc2)[C@@H](C)CN([C@@H](C)CO)C(=O)c2cc(NC(=O)Nc3ccc(C(F)(F)F)cc3)ccc2O1	17.1	6.8
C[C@H](CO)N1C[C@H](C)[C@H](CN(C)C(=O)Nc2ccccc2)Oc2ncc(-c3cccnc3)cc2C1=O	12.1	7.9
O=C(Cc1ccccn1)N1CC2(C1)[C@@H](c1ccccc1)[C@@H](CO)N2Cc1ccccn1	6.6	13.3
Cc1ccc(S(=O)(=O)N(C)C[C@H]2Oc3ccc(NC(=O)CCCCCC(=O)Nc4ccccc4N)cc3CC(=O)N([C@@H](C)CO)C[C@@H]2C)cc1	22.5	21.3
CO[C@H]1CN(C)C(=O)c2ccc(NC(=O)C3CCCC3)cc2OC[C@@H](C)NC[C@H]1C	1.3	-1.1
C[C@H]1CCCCO[C@@H](CN(C)Cc2ccc(C(=O)O)cc2)[C@@H](C)CN([C@@H](C)CO)C(=O)c2cc(NC(=O)Nc3ccc(F)cc3)ccc2O1	9.7	11.3
COC(=O)C[C@@H]1CC[C@H]2[C@H](COc3ccc(NC(=O)Nc4cc(C)cc(C)c4)cc3C(=O)N2C)O1	-13.6	-11.9
C[C@@H]1CCCCO[C@H](CN(C)C)[C@H](C)CN([C@H](C)CO)C(=O)c2cc(NC(=O)Nc3ccc(C(F)(F)F)cc3)ccc2O1	-12.4	-7.9
Cc1ccccc1-c1cnc2c(c1)C(=O)N([C@H](C)CO)C[C@H](C)[C@H](CN(C)C(=O)c1ccc(F)cc1)O2	-5.2	-14.3
C[C@H](NC(=O)N(C)C[C@H]1OCc2ccccc2-c2ccccc2C(=O)N([C@@H](C)CO)C[C@H]1C)c1ccccc1	8.1	0.3
C[C@@H]1CN([C@@H](C)CO)C(=O)c2cc(NS(=O)(=O)c3cccs3)ccc2O[C@@H](C)CCCCO[C@@H]1CN(C)C(=O)c1ccccc1	8.3	11.0
C[C@@H]1CCCCO[C@@H](CN(C)C)[C@@H](C)CN([C@H](C)CO)C(=O)c2cc(NC(=O)CCCCCC(=O)Nc3ccccc3N)ccc2O1	16.0	11.1
C[C@H](CO)N1C[C@H](C)[C@@H](CN(C)Cc2ccc(C(F)(F)F)cc2)Oc2c(NC(=O)Nc3ccccc3)cccc2C1=O	-20.5	-15.0
C[C@@H]1CN([C@H](C)CO)C(=O)c2cc(C#Cc3ccncc3)cnc2O[C@@H]1CN(C)C(=O)c1ccccc1F	3.1	0.5
C[C@H](CO)N1C[C@H](C)[C@@H](CN(C)C(=O)Nc2cccc(C(F)(F)F)c2)OCc2cn(nn2)CCCC1=O	17.7	12.6
C[C@H](O)C#Cc1ccc2c(c1)O[C@@H](CN(C)Cc1ccc(-c3ccccc3)cc1)[C@H](C)CN([C@H](C)CO)S2(=O)=O	?	/
COCC(=O)N(C)C[C@H]1Oc2ncc(/C=C/c3ccccc3)cc2C(=O)N([C@H](C)CO)C[C@@H]1C	4.3	0.9
Cc1cccc(S(=O)(=O)N2C[C@@H]3N[C@H](C2)C3c2ccc(-c3ccccc3F)cc2)c1 (stereo partly drawn)	?	10.2
CO[C@@H](CN(C)S(=O)(=O)c1ccc(F)cc1)[C@H](C)CN(Cc1ccccc1Cl)[C@H](C)CO	-4.9	-10.2

# A few values from the entries so far:
# Vaccinia inh Venus result of CO[C@H]1CN(C)C(=O)c2ccc(NC(=O)C3CCCC3)cc2OC[C@@H](C)NC[C@H]1C is entered as -1.1
# Vaccinia inh result of O=C(Cc1ccccn1)N1CC2(C1)[C@@H](c1ccccc1)[C@@H](CO)N2Cc1ccccn1 is entered as 6.6

# Other records follow:
SMILES	Vaccinia inh	Vaccinia inh Venus
COc1ccc2c3c(n(C)c2c1)[C@H](CO)N(C(=O)c1ccncc1)CC31CN(CC2CC2)C1	-0.2	-2.1
COCC(=O)N(C)C[C@H]1Oc2ncc(C#CCC3CCCC3)cc2C(=O)N([C@@H](C)CO)C[C@H]1C	2.6	-8.5
C[C@H]1CN([C@@H](C)CO)C(=O)Cc2cc(NC(=O)C3CC3)ccc2O[C@H]1CN(C)S(=O)(=O)c1ccc(Cl)cc1	-22.4	-11.4
O=C(C[C@@H]1C[C@H]2c3cc(NC(=O)NC4CCCC4)ccc3O[C@H]2[C@H](CO)O1)NCc1ccccn1	14.0	11.7

# Fetched by compound from above:
SMILES	Vaccinia inh	Vaccinia inh Venus
C[C@H](CO)N1C[C@H](C)[C@@H](CN(C)S(=O)(=O)c2ccccc2)Oc2ccc(NC(=O)NC3CCCCC3)cc2CC1=O	-0.5	1.8
Cc1noc(C)c1NC(=O)Nc1ccc2c(c1)C(=O)N([C@H](C)CO)C[C@@H](C)[C@@H](CN(C)C(=O)Nc1ccc(C(F)(F)F)cc1)O2	13.5	13.1
